# Source: PubChem BioAssay
# VDR inh: Inhibitors of the vitamin D receptor (VDR): qHTS; VDR-SRC2-3 peptide fluorescence polarization, 2 h; 0.93% of 400,000 active; AID 504847, 2011; Potency, µM, for inactives: max response, negative = inhibition, most hits filed as inhibitors; active = well fitted inhibition curve with a large enough effect; inconclusive = small, poorly fitted or top-dose-only effect, or another doubt; inactive = no such curve, though single readings can be large or run the other way; note: series mostly up to about 120 µM
# Target sequence (P11473 whole entry, looked up): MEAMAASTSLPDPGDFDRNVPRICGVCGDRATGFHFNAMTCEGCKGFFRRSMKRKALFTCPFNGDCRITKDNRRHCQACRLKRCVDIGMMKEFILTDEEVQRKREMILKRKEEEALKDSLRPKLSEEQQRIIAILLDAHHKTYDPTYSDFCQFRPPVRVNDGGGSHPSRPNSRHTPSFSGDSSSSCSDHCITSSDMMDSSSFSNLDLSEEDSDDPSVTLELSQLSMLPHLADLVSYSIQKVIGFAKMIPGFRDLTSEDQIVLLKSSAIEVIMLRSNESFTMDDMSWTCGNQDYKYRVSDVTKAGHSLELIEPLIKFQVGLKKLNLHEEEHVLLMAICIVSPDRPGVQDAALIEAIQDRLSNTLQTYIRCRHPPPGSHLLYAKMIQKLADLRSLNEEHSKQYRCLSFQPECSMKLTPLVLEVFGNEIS
#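 Measured by FP: displacement of SRC2-3 coactivator peptide from VDR by library compounds, following a two-hour ambient incubation.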
# * hit, by the source's call; ? = inconclusive; & = joins results of further samples; [ ] = another dose, or the depositor's remark. % is set by controls: 0 for no effect and ±100 for the full control effect; potency is the fitted concentration of half-maximal effect. This is a subset; rates above refer to the full screens.
COc1ccc(NC(=O)Cn2c(=O)n(-c3cccc(C)c3)c(=O)c3c2c2cc(C)ccc2n3C)cc1OC
- VDR inh: 10%
O=C1CC(Sc2nnnn2-c2ccccc2)C(=O)N1c1cccc(Cl)c1 (stereo not given)
- VDR inh: -5%
Cc1cc2nc(CN(C)Cc3c(C(=O)N(C)C)nc4ccc(Cl)cn34)[nH]c2cc1C
- VDR inh: 11%
COc1ccc(C(=O)N/N=C(\c2ccccc2)c2ccccn2)cc1
- VDR inh: -16%
CCN1CCN(c2oc(COc3ccc(-c4ccccc4)cc3)nc2C#N)CC1
- VDR inh: 7%
COc1ccc(OC)c(S(=O)(=O)N2CCCC(C(=O)NCCc3ccccc3)C2)c1 (stereo not given)
- VDR inh: -10%
COC(=O)C1=C(C)N(C)C(=O)NC1c1cc(Cl)c(O)c(OC)c1 (stereo not given)
- VDR inh: 10%
CC(C)CC[C@@H](O)[C@](C)(O)C1CC[C@@]2(O)C3=CC(=O)[C@@H]4C[C@@H](O)[C@@H](O)C[C@]4(C)C3CC[C@]12C (stereo not given in full)
- VDR inh: -11%
CC(=O)Nc1ccc(O)cc1[N+](=O)[O-]
- VDR inh: -1%
O=C(NC1CC1)C1=C[C@@H](c2csc3ccccc23)C[C@@H](OCc2ccc(CO)cc2)O1
- VDR inh: 6%

# Entries listed so far with sulfur:
O=C1CC(Sc2nnnn2-c2ccccc2)C(=O)N1c1cccc(Cl)c1 (stereo not given)
- VDR inh: -5%
COc1ccc(OC)c(S(=O)(=O)N2CCCC(C(=O)NCCc3ccccc3)C2)c1 (stereo not given)
- VDR inh: -10%
O=C(NC1CC1)C1=C[C@@H](c2csc3ccccc23)C[C@@H](OCc2ccc(CO)cc2)O1
- VDR inh: 6%

# Next results:
COc1ccc(NC(=O)NC(C)c2c(-n3cccc3)sc3c2CCN(C)C3)c(OC)c1 (stereo not given)
- VDR inh: -6%
CC(=O)C1=C(C)N(c2ccccc2)C(=O)C1(NS(=O)(=O)c1ccc(N)cc1)C(F)(F)F (stereo not given)
- VDR inh: 6%
CCOc1ccc(NC(=O)CN2C(=O)NC(CCc3ccccc3)C2=O)cc1OCC (stereo not given)
- VDR inh: 4%
COCN(C#N)c1nc(OC)nc(OC)n1
- VDR inh: 2%
CCOc1ccc(S(=O)(=O)N2CCC(c3ccccc3)CC2)cc1C(=O)O
- VDR inh: -6%
O=C(CN(C(=O)CCC(=O)Nc1nccs1)c1ccc(F)cc1)NCC1CCCO1 (stereo not given)
- VDR inh: 8%
COc1cc(NC2c3ccccc3C(=O)N2Cc2ccccc2)cc(OC)c1OC (stereo not given)
- VDR inh: -12%
Cc1cccc(NC(=O)Cn2c(=O)oc3cc(S(=O)(=O)N4CCCCCC4)ccc32)c1
- VDR inh: 2%
CC(C)N(c1ccccc1)c1ccc(NC(=S)NCCN(C)C)cc1
- VDR inh: -13%
O=C(Nc1cccc(S(=O)(=O)N2CCCC2)c1)c1ccc2ccccc2n1
- VDR inh: -12%

Cc1ccc(Cn2ccc(NC(=O)c3cc(-c4ccc(Cl)c(Cl)c4)on3)n2)cc1
- VDR inh: -4%
COc1ccc2nc(N3C(=O)C(O)=C(C(=O)c4ccco4)C3c3ccco3)sc2c1 (stereo not given)
- VDR inh: 19%
Cc1ccc2cccc(NC(=O)c3ccc(-c4cccc([N+](=O)[O-])c4)o3)c2n1
- VDR inh: -7%
CCOC(=O)c1oc2c(O)c(O)ccc2c(=O)c1-c1nncn1-c1ccccc1
- VDR inh: -1%
CC(=O)c1ccc(S(=O)(=O)NCc2cccnc2)cc1
- VDR inh: 2%
Cc1ccnc(NC(=O)Cn2c(=O)oc3cc(S(=O)(=O)N4CCCC4)ccc32)c1
- VDR inh: -12%
O=C(c1cccnc1)c1cccnc1
- VDR inh: 2%
Cc1ccccc1OCC(=O)Nc1ccc(S(=O)(=O)Nc2onc(C)c2C)cc1
- VDR inh: 19%
O=C(Nc1ccccn1)c1cccc(S(=O)(=O)N2CCOCC2)c1
- VDR inh: -23%
CC(C)(C)C(=O)COC(=O)c1cc(-c2ccncc2)nc2ccccc12
- VDR inh: -10%

COc1ccc(C2C(C#N)=C(N)N(N(C)C)C3=C2C(=O)CCC3)cc1 (stereo not given)
- VDR inh: 6%
CCOC(=O)c1ccc(S(=O)(=O)N2CCC(C(=O)NCC3CCCCC3)CC2)cc1
- VDR inh: 2%
O=C(Nc1cccc(C(F)(F)F)c1)Nc1cc(Cl)ccc1C(=O)O
- VDR inh: 50µM*
CCCc1cc(=O)oc2cc(OCC(=O)Nc3ccc4c(c3)OCCO4)ccc12
- VDR inh: 17%
COc1ccc([N+](=O)[O-])cc1N(CC(=O)N1CCCCC1)S(C)(=O)=O
- VDR inh: 1%
CN(CCN1CCOCC1)Cc1nc(-c2cccs2)no1
- VDR inh: 1%
COc1ccccc1CNC(=O)C1(C)Oc2cccnc2NC1=O (stereo not given)
- VDR inh: -1%
CC(C)c1ccccc1NCC(=O)N1CCN(Cc2ccccc2)CC1
- VDR inh: 17%
CC(C)NC(=O)c1c(O)c2cccc3c2n(c1=O)CCC3
- VDR inh: -5%
CN(CC(=O)Nc1ccccc1Br)C(=O)C1CCN(C(=O)c2ccc(Cl)cc2)CC1
- VDR inh: -9%

Cc1ccc(NC(=O)Cn2cccc2)cc1Cl
- VDR inh: -12%
Cc1cc(N2CCN(C(=O)c3ccco3)CC2)n2ncc(-c3ccccc3)c2n1
- VDR inh: -1%
Cc1ccnc(OC(C(=O)O)C(OCCc2ccccc2)(c2ccccc2)c2ccccc2)n1 (stereo not given)
- VDR inh: -9%
Fc1ccc(/C=N/N2CCCCC2)c(F)c1
- VDR inh: -6%
CCOC(=O)CN1C(=O)N[C@@H](c2cccc(F)c2)C(C(=O)OC)=C1C
- VDR inh: -1%
Cc1cccc(NC(=O)c2ccc(N3C(=O)C4C5C=CC(C6CC56)C4C3=O)cc2)c1 (stereo not given)
- VDR inh: -1%
COc1ccc(S(=O)(=O)N(C)c2ccc(C(=O)NCc3ccco3)cc2)cc1
- VDR inh: 14%
O=C(/C=C/c1ccc(O)c(O)c1)OCCc1ccccc1
- VDR inh: -7%&-13%&4%&-19%&3%
S=C(NC1CCCC1)N1CCN(c2cccc(Cl)c2)CC1
- VDR inh: 42%[activator]
Cc1sc2nc(CSCC(=O)N(CCC#N)c3ccccc3)[nH]c(=O)c2c1C
- VDR inh: -18%

CN1/C(=C/C=N/NC(=O)c2ccc([N+](=O)[O-])cc2)C(C)(C)c2ccccc21
- VDR inh: -11%
O=C(CCn1c(=S)oc2ccccc21)NC1CCCCC1
- VDR inh: -5%
Cc1ccc(C)c(NS(=O)(=O)c2cc(C(N)=O)ccc2C)c1
- VDR inh: -9%
COc1cc2c(cc1OC)/C(=C/C#N)NC(C)(C)C2
- VDR inh: 4%
COc1ccc(CNC(=O)C(=O)NCCC2CCCCN2S(=O)(=O)c2ccccc2)cc1 (stereo not given)
- VDR inh: 6%
N#Cc1cccc(NC(=O)Nc2cccs2)c1
- VDR inh: 0%
O=C(CCCOc1ccccc1)Nc1cccnc1
- VDR inh: 2%
Cc1ccccc1N1CCN(Cc2cccc(C(=O)O)c2)CC1
- VDR inh: 4%
Cc1cc2oc(C(=O)Nc3c(C(=O)Nc4ccccc4)oc4ccccc34)cc(=O)c2cc1C
- VDR inh: 9%
Cc1cc(=O)oc2c(C)c(OCC(=O)NCCCn3ccnc3)ccc12
- VDR inh: 12%

# Continued; it opens with the 2 that closed the last part.
Cc1cc2oc(C(=O)Nc3c(C(=O)Nc4ccccc4)oc4ccccc34)cc(=O)c2cc1C
- VDR inh: 9%
Cc1cc(=O)oc2c(C)c(OCC(=O)NCCCn3ccnc3)ccc12
- VDR inh: 12%
CCc1nnc(NC(=O)CSc2nnc(C)n2CC2CCCO2)s1 (stereo not given)
- VDR inh: 6%
CC(=O)c1ccc(NC(=O)c2cc3sccc3n2Cc2ccc(Cl)cc2)cc1
- VDR inh: -16%
FC(F)(F)COc1nc(N2CCOCC2)nc(N(c2ccccc2)c2ccccc2)n1
- VDR inh: -4%
O=S(=O)(NCC1CCCO1)c1cc(Cl)ccc1Cl (stereo not given)
- VDR inh: -10%
O=C(C1CCCCC1)N(Cc1cccnc1)c1nc2ccc(F)cc2s1
- VDR inh: 8%
CCN(CC)C(=O)CN(c1cccc(C(F)(F)F)c1)S(C)(=O)=O
- VDR inh: -1%
Cc1ccc(Oc2ccc(Cl)cc2NC(=O)c2cnccn2)cc1
- VDR inh: -7%
COc1cccc(C(=O)c2c[nH]c(C(=O)NCc3ccco3)c2)c1
- VDR inh: 24%
COc1cc2c(cc1OC)CN(C(=O)CN1CCN(S(=O)(=O)c3ccccc3Br)CC1)CC2
- VDR inh: 6%
Cn1cnc2cc(NS(=O)(=O)c3ccc(Br)cc3)ccc21
- VDR inh: 12%

Cc1ccc(COCC(CC(C)C)N2CCN(C(=O)c3cccc(C(F)(F)F)c3)CCC2=O)cc1 (stereo not given)
- VDR inh: -5%
COc1ccccc1C(=O)N/C(=N/c1nc(C)cc(C)n1)Nc1ccccc1
- VDR inh: -14%
Cc1cc(NC(=O)CCc2ccccc2)c([N+](=O)[O-])cc1C
- VDR inh: -2%
CCc1ccc(Nc2sc(C(=O)c3ccccc3)c(N)c2S(C)(=O)=O)cc1
- VDR inh: 0%
CCOC(=O)C(C)Sc1ncc(-c2ccccc2)cn1 (stereo not given)
- VDR inh: 13%
Cc1c(C)n(-c2ccccc2)c2ncnc(NCCCN(C)C)c12
- VDR inh: 12%
O=C(C1=NN[C@@H]2C(=O)N(c3cccc(F)c3)C(=O)[C@H]12)C(c1ccccc1)c1ccccc1
- VDR inh: 22%
O=C(Nc1cc(Cl)ccc1-n1cncn1)c1ccc([N+](=O)[O-])s1
- VDR inh: -4%
COc1cc(-c2nnc(SCC(=O)Nc3cc(C)on3)n2C)cc(OC)c1O
- VDR inh: 2%
CCOC(=O)c1cc(NC(=O)c2ccc(OC)cc2)c(=O)n2c1oc1ccc(Cl)cc12
- VDR inh: 3%

Cc1cccc2cc(CN(C(=O)c3cccs3)c3ccccc3)c(=O)[nH]c12
- VDR inh: 8%
CCCCN(CC)C(=O)C1CCC(=O)N(c2ccc(OC)cc2)C1c1ccc(OC)c(OC)c1 (stereo not given)
- VDR inh: 4%
O=C(NNC(=S)Nc1ccccc1C(F)(F)F)c1ccc(Br)o1
- VDR inh: -24%
COc1ccccc1CCN1CCCC(CN(C)C(=O)c2ccc3nc[nH]c3c2)C1 (stereo not given)
- VDR inh: -23%
CC(C)CNS(=O)(=O)c1cc(C(=O)OCC(=O)c2ccc3c(c2)OCCO3)c(Cl)cc1Cl
- VDR inh: -8%
O=C(CSc1nc(-c2ccccc2)cc(=O)[nH]1)Nc1ccccn1
- VDR inh: 13%
Cc1ccc(S(=O)(=O)N2CCN(C(=O)COC(=O)c3ncc(Cl)c(Cl)c3Cl)CC2)c(C)c1
- VDR inh: 1%
Cc1ccc(SCc2cn3cccnc3n2)cc1
- VDR inh: -3%
CCOc1ccccc1C(=O)Nc1ccccc1O
- VDR inh: 1%
COc1ccc(NS(=O)(=O)c2cc3[nH]c(=O)c(=O)[nH]c3cc2C)cc1OC
- VDR inh: 14%

Cc1ccc(C)c(S(=O)(=O)N2CCC(c3nc4c(nnn4Cc4ccc(F)cc4)c(=O)[nH]3)CC2)c1
- VDR inh: 8%
COc1ccc(-c2ccc(=O)[nH]n2)cc1
- VDR inh: -3%
CN(C)/C=C/C(=O)c1ccc(S(=O)(=O)c2ccccc2)cc1
- VDR inh: 2%
CC(=O)c1ccc(Nc2cnn(C34CC5CC(CC(CC(=O)O)(C5)C3)C4)c(=O)c2Cl)cc1
- VDR inh: 4%
C[N+]1(CCOS(=O)C23CC4CC(CC(C4)C2)C3)CCOCC1 (stereo not given)
- VDR inh: 3%
O=C(CSc1cn(CCNC(=O)c2cccs2)c2ccccc12)NC1CCCC1
- VDR inh: 7%
CCC(C(=O)NC1CCCCC1)N(C(=O)c1snc(C(N)=O)c1N)c1ccc(OC)cc1OC (stereo not given)
- VDR inh: ?
CC(=O)c1cccc(NC(=O)C(Sc2ncnc3ccccc23)c2ccccc2)c1 (stereo not given)
- VDR inh: 2%
Cc1cc(C)nc(N2CCC(CNC(=O)CCc3ccccc3)CC2)n1
- VDR inh: -2%
CCCCC(=O)OCC(=O)Nc1ccc(C)c(F)c1
- VDR inh: -22%

Cc1ccc(CONS(=O)(=O)c2cc(C)ccc2C)cc1
- VDR inh: 2%
CCOC(=O)c1c(C)nc2c(C#N)cnn2c1C
- VDR inh: 2%
COc1cc2c(cc1OC)C(c1ccccc1Br)NC(=O)C2 (stereo not given)
- VDR inh: -15%
CCN(CC(=O)NCc1cccs1)CC(=O)Nc1cccc(S(N)(=O)=O)c1
- VDR inh: -8%
O=C(C[n+]1cn(C(F)F)c2ccccc21)c1ccc(OC(F)F)cc1
- VDR inh: ?
Cc1ccc(C(=O)C2=C(O)C(=O)N(Cc3cccnc3)C2c2ccc(N(C)C)cc2)o1 (stereo not given)
- VDR inh: 10%
CC1(C)Cc2c(cnn2-c2ccc(F)cc2)C(NC(=O)C(C)(C)O)C1 (stereo not given)
- VDR inh: -6%
COC(=O)CSc1nnc(C2COc3ccccc3O2)n1-c1ccccc1 (stereo not given)
- VDR inh: 8%
COc1ccc(OCc2n[nH]c(=S)o2)cc1
- VDR inh: -12%
Cc1cccc(N(CC(O)CON=C2c3ccccc3-c3ccccc32)S(C)(=O)=O)c1 (stereo not given)
- VDR inh: 2%

COc1ccc(C(C(=O)NCC2CCCO2)N(C(=O)Cn2nnc3ccccc32)c2ccc(NC(C)=O)cc2)c(OC)c1 (stereo not given)
- VDR inh: -2%
CCOc1cccc(NC(=O)/C(C#N)=C\c2cn(CC(=O)O)c3ccccc23)c1
- VDR inh: -10%
Cc1ccc(CNC(=O)C(=O)NCC2OCCN2S(=O)(=O)c2ccc(Br)cc2)cc1 (stereo not given)
- VDR inh: 2%
CC(C)C(c1nnnn1CC1CCCO1)N1CCN(Cc2ccc3c(c2)OCO3)CC1 (stereo not given)
- VDR inh: -1%
Cc1csc(N(C(=O)Cc2ccccc2F)c2ccccc2)n1
- VDR inh: -11%
COc1ccc2c(Sc3ccccc3)c(C(=O)NCc3cccc(OC)c3OC)[nH]c2c1
- VDR inh: 2%
COc1ccc(-c2cc(C(=O)NCC(C)C)no2)cc1
- VDR inh: -14%
